Screening data from PubChem.
Choline anaer gr – inhibitors of anaerobic choline-dependent gram-negative bacterial growth. 0.2% of 55,000 active. calls only. AID 1963822. Gram-negative bacterium anaerobic choline minimal medium, absorbance growth; hits give low values; many inactives read as strong as hits in the columns shown;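 active = growth z-score on choline under -2 at 7 or 20 h with little or no fall on glycerol, limits in tiers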;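 also: stock transfer was 300 nL into about 50 µL; the organism is E. coli; final concentration not given here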
Choline anaer gr early – recorded beside Choline anaer gr, whose call it bears; z-score; measured here: choline growth z-score, timepoint 1;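 score of optical density at 7 h as mean of two plates; lower means less growth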
* marks the source's active call; other numbers are inactive results; i = inactive; & = joins results of further samples.

Values run as follows: Choline anaer gr | Choline anaer gr early
- CC1CCN(S(=O)(=O)c2ccc3c(c2)oc(=O)n3CC(=O)NCc2ccc3c(c2)OCO3)CC1
  i | -0.05
- Cc1ccc(-c2nc(-c3ccc4c(c3)[nH]c(=O)c(=O)n4C)no2)c(C)c1
  i | -1.85
- COc1ccc(N2CC(C(=O)Nc3nnc4n3CCS4)CC2=O)cc1 (stereo unspecified)
  i | -2.79
- COCCNC(=O)CCc1nc2sc3c(c2c(=O)[nH]1)CCCCC3
  i | -0.82
- COC(=O)C1=C(c2ccccc2)c2ccccc2S(=O)(=O)N1CC(=O)Nc1cccc(C)c1
  i | 0.89
- C=CCSc1nn(C(C)C)c2nc3c(c(=O)n12)C(C)(C)Cc1ccccc1-3
  i | 0.34
- CCOC(=O)C1CCN(c2nc3ccccc3n(CC)c2=O)CC1
  i | -0.72
- O=S(=O)(c1cccc2nsnc12)N1CC(OCc2ccc(F)cc2Cl)C1
  i | 0.58
- Cc1cccc(CSc2nc3c(=O)n(C)c(=O)n(C)c3n2C)c1
  i | -0.03
- O=C(NCc1ccc(Br)cc1)c1cccc(-c2cc(N3CCCC3)ncn2)c1
  i | -0.22
- CC(C)CNC(=O)c1ccc(-c2cc(N3CCCC3)ncn2)cc1
  i | 0.22
- O=C(NC1CCCc2ccccc21)c1ccc(-c2cc(N3CCOCC3)ncn2)cc1 (stereo unspecified)
  i | -1.29
- CC(C)NC(=O)CCn1c(=O)c2ccccc2n2c(=O)n(Cc3cccc(F)c3)nc12
  i | 1.53
- CN(C)C1=NS(=O)(=O)c2ccccc21
  i | 0.45
- CCN1c2ccccc2-n2cccc2C12CCN(C(=O)Nc1cc(C)ccc1C)CC2
  i | -0.23

Record cards, as listed above. Screens in order: Choline anaer gr	Choline anaer gr early
COC(=O)C1=C(c2ccccc2)c2ccccc2S(=O)(=O)N1CC(=O)Nc1cccc(C)c1 is entered as i	0.89
CC1CCN(S(=O)(=O)c2ccc3c(c2)oc(=O)n3CC(=O)NCc2ccc3c(c2)OCO3)CC1 is entered as i	-0.05

(cont.)
Values run as follows: Choline anaer gr | Choline anaer gr early
- O=C(NCCCN1CCCC1)C1CCN(c2cnc(N3CCCC3)nc2)CC1
  i | 0.7
- COc1ccc(C2=NN(S(C)(=O)=O)C(c3cn(-c4ccccc4)nc3-c3ccc(C)cc3)C2)cc1 (stereo unspecified)
  i | 0.1
- Cc1cc(C)cc(NC(=O)NCCCn2c(-c3ccncc3)nc3cccnc32)c1
  i | 0.24
- Cc1ccn(CC(C)NC(=O)C2CCc3nc(N4CCC(C)CC4)ncc3C2)n1 (stereo unspecified)
  i | -1.33
- Cc1ccc(S(=O)(=O)Nc2c(-n3cnnc3)nn(C)c2C)c(C)c1
  i | -0.79
- CCOc1ccc(Oc2cc3c(cc2NC(=O)CC(C)C)n(C)c(=O)c(=O)n3C)cc1
  i | 0.89
- Fc1cc(F)cc(-c2noc3ncnc(NC4CC4)c23)c1
  i | -0.45
- Cn1c(CCc2ccc(NC(=O)CN3C(=O)COc4ccc(C(C)(C)C)cc43)cc2)nc2ccccc21
  i | 0.13
- Cc1nnc(-c2ccc3ccn(CC(=O)Nc4nccs4)c3c2)o1
  i | 1.1
- COc1ccc(N2CCN(C(=O)c3cnc4scc(C)n4c3=O)CC2)cc1
  i | 1.07
- O=C(c1nc(-c2csc(S(=O)(=O)N3CCCC3)c2)no1)N1CCOCC1
  i | -0.38
- CCCn1c(=O)c2ccccc2n2c(SCC(=O)Nc3ccccc3CC)nnc12
  i | 0.42
- O=C(Nc1ccccc1Br)N1CCN(c2cc(-c3ccccc3)ncn2)CC1
  i | 0.39
- COc1ccc2c(c1)cc(C(=O)NCCOc1ccccc1)n2C
  i | 0.48
- CCCN1CCc2nc(NC(=O)c3ccc(S(=O)(=O)N4CCc5ccccc5C4)cc3)sc2C1
  i | 0.77

Single values from the entries so far.
Choline anaer gr early with `Cc1ccn(CC(C)NC(=O)C2CCc3nc(N4CCC(C)CC4)ncc3C2)n1` (stereo unspecified) is entered as -1.33
Choline anaer gr early with `Cc1ccc(S(=O)(=O)Nc2c(-n3cnnc3)nn(C)c2C)c(C)c1` is entered as -0.79
Choline anaer gr early with `COc1ccc(C2=NN(S(C)(=O)=O)C(c3cn(-c4ccccc4)nc3-c3ccc(C)cc3)C2)cc1` (stereo unspecified) is entered as 0.1
Choline anaer gr early with `Fc1cc(F)cc(-c2noc3ncnc(NC4CC4)c23)c1` is entered as -0.45
Choline anaer gr early with `Cc1cc(C)cc(NC(=O)NCCCn2c(-c3ccncc3)nc3cccnc32)c1` is entered as 0.24

Additional results follow:
Values run as follows: Choline anaer gr | Choline anaer gr early
- CCCn1c(=O)c2ccc(C(=O)NC(C)CC)cc2n2c(=O)n(CC(=O)NC(C)(C)C)nc12 (stereo unspecified)
  i | 0.07
- Cn1cc(C(=O)NCCCN2CCCC2=O)c2[nH]c(=O)n(-c3ccc(Cl)cc3)c(=O)c21
  i | -0.51
- O=C(CSc1nc(NCc2ccc(Cl)cc2)c2ccccc2n1)N1CCN(c2ccccc2)CC1
  i | -0.17
- CCOCCCNC(=O)c1nn(C)c2c1CSc1ccc(F)cc1-2
  i | 0.96
- CCNCc1ccc(-c2ccc(F)cc2)o1
  i | -0.41
- Cc1cc(C(=O)Nc2cccc(Br)c2)c2c(=O)n(C)c(=O)n(C)c2n1
  i | 0.61
- O=S(=O)(c1cccn2c(SCc3c(F)cccc3Cl)nnc12)N1CCCC1
  i | 0.33
- CNCCCC1c2ccccc2C=Cc2ccccc21
  i | -0.77&-1.09
- CCCCCCNC(=O)C1CC(=O)N(CCc2c[nH]c3ccc(C)cc23)C1 (stereo unspecified)
  i | -0.33
- Cc1nc(S(=O)(=O)N2CCC(C(=O)N3CCN(c4ccccc4F)CC3)CC2)cn1C
  i | -0.6
- CS(=O)(=O)Nc1nc2n(n1)C(c1ccccc1Cl)C=C(c1ccc(Br)cc1)N2 (stereo unspecified)
  i | -0.08
- COC(=O)CC1=CC(=O)N(Cc2cccc(Cl)c2)c2cc(C)c(C)cc2N1
  i | -0.38
- CC1Oc2cc(S(=O)(=O)N3CCN(C(=O)NCc4ccccc4)CC3)c(Cl)cc2NC1=O (stereo unspecified)
  i | -0.55
- O=C(Cn1nc(N2CCN(c3ccccc3)CC2)ccc1=O)NC1CC1
  i | -0.44
- Cn1c(SCCOc2ccccc2F)nnc1-c1ccc2c(c1)OCCCO2
  i | -0.68
- Cc1nnc(N2CCCC(C(=O)NCc3cccc(F)c3)C2)c2nn(-c3ccc(Cl)cc3)c(C)c12 (stereo unspecified)
  i | 0.1
- Cc1ccc2ncc3c(-c4ccc(F)cc4)n[nH]c3c2c1
  i | 0.73
- Fc1ccc(-c2cc(-c3cc(F)cc(F)c3)n3ncnc3n2)cc1
  i | -2.13
- Cn1cc(Cl)c(C(=O)N2CCCC2c2ccc(F)cc2)n1 (stereo unspecified)
  i | -0.38
- CCCc1cc(C2CCCN2C(=O)Cn2nc(C(F)(F)F)c3c2CCCC3)no1 (stereo unspecified)
  i | 0.24
- COc1ccc(Oc2cc(-c3cccc(C(=O)NCC(C)C)c3)ncn2)cc1
  i | 1.34
- O=C(O)c1cn(-c2cccc(Cl)c2)c(=O)c2ccccc12
  i | -0.58
- Cc1ccc(S(=O)(=O)Nc2cccc(-c3nnc(-c4ccccc4)o3)c2)cc1C
  i | 1.43
- CCN(CCCNC(=O)CCC(=O)N1Cc2cccc(OC)c2Oc2ncccc21)Cc1ccccc1
  i | -0.33
- Cn1nc(C(=O)N2CCCC(C(=O)NC3CC3)C2)c2c1CCN(C(=O)c1c(F)cccc1F)C2 (stereo unspecified)
  i | -1.15
- CC1=Nc2ccccc2N=C(NC(=O)c2ccccc2)C1c1ccc(Cl)cc1 (stereo unspecified)
  i | 0.7
- COc1ccc2oc(C)c(C(=O)Nc3ccccc3OC)c2c1
  i | -0.08
- CCOc1nc2c(c(C)nn2-c2ccc(C)cc2)c(C)c1CCC(=O)Nc1ccc(OC)cc1
  i | -0.14
- C=CCn1c(=O)c2sc(N3CCCCC3)nc2n(CC(=O)Nc2ccc3c(c2)CCC3)c1=O
  i | -0.33
- c1ccc2nc(C3=NCCN3)cnc2c1
  i | 0.4
- Cc1nc(-c2cc(S(=O)(=O)NCc3cccs3)c(C)s2)sc1C
  i | 0.59
- CCOC(=O)c1ccc(NC(=O)Nc2cc(OC)c3nc(NC(C)=O)sc3c2)cc1
  i | 0.01
- CC1CCN(S(=O)(=O)c2ccc(-c3nc(C#N)c(NCC4CCCO4)o3)cc2)CC1 (stereo unspecified)
  i | 0.81
- O=c1cc(-c2ccc(O)cc2)oc2cc(O)cc(O)c12
  i | -0.39&-0.98&-0.32
- Cc1nc(-c2cc(S(=O)(=O)NCCCN3CCCC(C)C3)c(C)s2)sc1C (stereo unspecified)
  i | -1.16
- CC(C)OCCCn1c(=O)c2cc(Cl)ccc2n2c(SCc3ccc(F)cc3)nnc12
  i | -0.37
- CN(C)c1ccc(C2c3cccn3-c3sc4c(c3CN2C(=O)NC2CCCC2)CCCC4)cc1 (stereo unspecified)
  i | 0.76
- O=C(Nc1ccc(Oc2ccc(Cl)cc2)cc1)c1ccc2c(c1)OCCO2
  i | 1.08
- Cc1nn(S(=O)(=O)c2ccccc2)c(C)c1S(=O)(=O)N1CCOCC1
  i | 0.52
- CCCS(=O)(=O)N1CCN(C(=O)c2cc(-c3ccc(OC)cc3)n[nH]2)CC1
  i | 1.37
- C[C@H](CCC(=O)O)[C@H]1CC[C@H]2[C@@H]3CC[C@@H]4C[C@H](O)CC[C@]4(C)[C@H]3CC[C@]12C
  i | 0.55
- CCSc1nc2n(n1)C(c1ccc(Br)cc1)C(C(=O)Nc1ccccc1C)=C(C)N2 (stereo unspecified)
  i | -0.06
- CCOC(=O)c1cc(S(=O)(=O)N2CCN(c3ccccn3)CC2)cn1C
  i | 0.22
- CCOC(=O)c1sc(-n2[nH]c(C)c(Cc3ccccc3Cl)c2=O)nc1C
  i | 0.03
- Cn1c(C(=O)NCC2CCCO2)cc2c(=O)oc3ccccc3c21 (stereo unspecified)
  i | 0
- O=S1(=O)C[C@H](NCC2CCCO2)[C@@H](S(=O)(=O)c2cccs2)C1 (stereo partly specified)
  i | -1.35
- CCn1nc(-n2cnnc2)c(NS(=O)(=O)c2ccccc2)c1C
  i | 0.32
- C=CCOc1c(Br)cc(CNCCNC(=O)c2nonc2N)cc1OC
  i | 0.04
- Cc1nnc(C(=O)Nc2ccc(C(=O)NCc3ccccn3)cc2)s1
  i | -0.46
- CC1(C(=O)NC2CCCC2)Cn2c(ccc2-c2ccccc2)C(=O)N1CCc1ccc(Cl)cc1 (stereo unspecified)
  i | 0.54
- CC1CC(C)CN(CC2CCN(C(=O)Nc3ccc4c(c3)OCCO4)CC2)C1 (stereo unspecified)
  i | -0.2
- CCn1cc(CN2CCC(C(=O)NC3CC3)CC2)c2cc(OC)ccc21
  i | -0.52
- COc1ccc(CNC(=O)c2nc(N3CCOCC3)c3ccccc3n2)cc1
  i | -0.22
- O=C1CN(C(=O)C2CC2)c2ccccc2N1
  i | -1.21
- CCCCCCCCCCCCC/C=C/[C@@H](O)[C@H](CO)N(C)C
  i | 0.55
- COc1ccccc1CNC(=O)C1=Cc2cc(C)ccc2OC=C1
  i | 1.54
- O=C(c1ccc(F)cc1)C1CCN(CCn2c(=S)[nH]c3ccccc3c2=O)CC1
  i | 0.1&0.59
- Cc1nnc(-c2coc(S(=O)(=O)N3CCCCC3)c2)o1
  i | -0.51
- Cc1c(Cl)cccc1NC(=O)Cn1c(=O)n(CCCCC(=O)NC(C)C)c(=O)c2ccccc21
  i | 0.22
- CCCC(=O)N1CCN(c2cc(=O)n(C(C)C)c(=O)n2C(C)C)CC1
  i | 1.02

Remaining list, next part:
Values run as follows: Choline anaer gr | Choline anaer gr early
- Cc1c(Cl)cccc1NC(=O)CSc1nnc(-c2ccncc2)o1
  i | -0.8
- Cc1ccc(Cc2nnc(-c3ccc(NS(=O)(=O)c4ccc(C(C)(C)C)cc4)cc3)o2)cc1
  i | -0.97
- COc1ccc(C(=O)Nc2cnc3oc(-c4ccccc4)nn3c2=O)cc1OC
  i | -0.61
- c1cc(-c2noc(C3CCOC3)n2)cc(N2CCOCC2)n1 (stereo unspecified)
  i | -0.5
- COc1ccc(CNC(=O)CCc2nc(N3CCCCC3)c3c(-c4ccc(F)cc4)noc3n2)cc1
  i | 1.17
- O=C(CCC(=O)N1CCc2cc(S(=O)(=O)N3CCc4ccccc4C3)ccc21)N1CCCC1
  i | 1.06
- CCOC(=O)c1[nH]c(C)c(CCC(=O)N2CCCC(C(=O)NCCN3CCN(C)CC3)C2)c1C (stereo unspecified)
  i | 0.17
- O=C(c1cnc2ccccc2c1Nc1ccc(F)c(F)c1)N1CCOCC1
  i | 0.12
- CN(C(=O)CSCc1nc(-c2ccc(Cl)cc2)no1)C1CCCCC1
  i | -0.15
- c1ccc(-c2nc(-c3ccc4nncn4c3)no2)cc1
  i | 0.53
- CCCn1c(CCc2ccccc2NS(=O)(=O)c2ccc3c(c2)OCCO3)nc2ccccc21
  i | 0.87
- O=c1ccn(-c2ccc(Cl)cc2)nc1-c1nc(-c2ccc(F)cc2)no1
  i | 0.05
- Cc1cccc(NC(=O)C2CCN(S(=O)(=O)c3cn(C(C)C)cn3)CC2)n1
  i | -0.15
- Cc1sc(NC(=O)c2ccccc2)c(C(Nc2ccccn2)c2ccccn2)c1C (stereo unspecified)
  i | -0.03
- CCC(NC(=O)Nc1ccccc1OC)c1c(-n2cccc2)sc2c1CCN(C)C2 (stereo unspecified)
  i | -1.34
- CC1Cn2c(C(=O)N3CCc4ccccc4C3)cc3c(Cl)ccc(c32)O1 (stereo unspecified)
  i | -2.38
- Cc1nc(Oc2ccc(F)cc2)c2c(C)c(C)sc2n1
  i | 1.32
- CCCn1nnc2cc(S(=O)(=O)N3CCCC(C(=O)NCc4cccc(Cl)c4)C3)ccc21 (stereo unspecified)
  i | 0.5

3 structures out of the list, arranged by SMILES length, rising.
Values run as follows: Choline anaer gr | Choline anaer gr early
- Cc1nnc(-c2ccc3ccn(CC(=O)Nc4nccs4)c3c2)o1
  i | 1.1
- CCn1cc(CN2CCC(C(=O)NC3CC3)CC2)c2cc(OC)ccc21
  i | -0.52
- CCCC(=O)N1CCN(c2cc(=O)n(C(C)C)c(=O)n2C(C)C)CC1
  i | 1.02

An excerpt; count on the stated rates, not on these rows.
